Compound activity (PubChem BioAssay)
GLA inh pH 4.5 = alpha-galactosidase A (human) inhibition, pH 4.5. purified enzyme, 4-MU-alpha-Gal fluorescence, pH 4.5. 230,000 tested, under 10 active. P06280. activity change, negative = inhibition, % at 105 µM; inconclusive = small, poorly fitted or top-dose-only inhibition, or a rising curve; inactive = flat fitted curve, though single readings scatter; no compound was filed as active;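 note: 0% = full activity with enzyme and -100% = basal without enzyme; dose as in the result columns while the protocol names 77 µM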
Target sequence (P06280 whole entry, looked up): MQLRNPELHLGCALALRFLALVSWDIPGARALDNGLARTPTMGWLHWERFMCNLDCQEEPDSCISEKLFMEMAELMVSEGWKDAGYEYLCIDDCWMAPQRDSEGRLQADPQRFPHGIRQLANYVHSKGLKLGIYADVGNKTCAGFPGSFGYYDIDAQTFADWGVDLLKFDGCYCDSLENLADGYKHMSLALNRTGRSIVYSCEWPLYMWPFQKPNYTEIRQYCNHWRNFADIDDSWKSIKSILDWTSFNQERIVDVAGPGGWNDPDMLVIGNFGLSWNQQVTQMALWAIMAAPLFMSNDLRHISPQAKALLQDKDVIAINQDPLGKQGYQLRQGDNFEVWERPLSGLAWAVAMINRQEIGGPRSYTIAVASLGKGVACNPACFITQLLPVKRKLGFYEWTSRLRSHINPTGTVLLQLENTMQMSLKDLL
Rango complex inh = inhibitors of Rango-importin beta complex formation; Q14974; Rango CFP/YFP FRET sensor + importin beta, 45 min; Potency, µM (highest dose often 92.2 µM), without a hit: at the top dose inhibition of complex formation; 340,000 tested, 0.031% active; AID 540263; active = rising FRET ratio curve, often small or poorly fitted; inconclusive = mostly compound fluorescence or quenching in the first reads; inactive = flat curves in all reads;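 note: potency is the fitted concentration of half-maximal effect; 0% = DMSO wells and 100% = buffer wells lacking importin beta; nearly all actives have a fitted effect of over 15% in size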
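FRET biosensor (snurportin 1 IBB flanked by EYFP and cerulean), 50 nM, with compound 5 min, then 0.125 microM importin beta in PBS, 1 mM DTT, 0.02% Tween-20, 0.1% BSA. CFP/YFP ratio read after 45 min at room temperature; pre-read flags interference.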
miR-21 reporter = raises the signal of a miR-21 reporter; 340,000 tested, under 10 active; Potency, µM (titrated, usually from 38.3 µM), inactives show at the highest dose reporter change, positive = more light; HeLa miR-21 FLuc reporter, luciferase, 48 h; active = well fitted rising curve with a large enough effect; inconclusive = small, poorly fitted or top-dose-only effect; inactive = no such curve, though single readings can be large or run the other way;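 note: % of control where 0% means no effect; miR-21 action dims this reporter so a rising signal means less miR-21 action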
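HeLa cells stably expressing CMV-driven firefly luciferase with a downstream miR-21 binding sequence, endogenously expressing miR-21, were treated with titrations (up to about 40uM final) for 48 hours at 37 degree Celsius. Luciferase luminescence was read after lysis.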
Rango release inh = inhibitors of RanGTP-induced Rango-importin beta complex dissociation. O95149+P62826. Biochemical FRET Rango-importin beta, RanGTP-induced dissociation. Potency, µM (series often up to 46.1 µM), without a hit: top-dose activity change, negative = inhibition. 340,000 tested, 0.071% active. AID 540253; active means falling FRET ratio curve, often poorly fitted, with flat reads before Ran was added; inconclusive means other falling curves, or compound fluorescence or quenching; inactive means flat or rising ratio curve;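 note: potency is the fitted concentration of half-maximal effect; % of control where 0% means no effect; nearly all actives have a fitted effect of over 45% in size; -100% = wells without RanGTP and RCC1; the record marks most hits as doubtful in a second field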
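Compounds sat 5 min at room temperature with 0.1 uM Rango biosensor plus 0.25 uM importin beta, then FRET pre-read. RanGTP-RCC1 (0.6 uM Ran, 2mM GTP, 0.2 uM RCC1) added for 45 min, and the CFP/YFP post-read measured blocked complex dissociation.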
Active calls of the source: *; u = inconclusive; x = not tested or not shown; [ ] = remark or other dose. A portion of the library, so the mix of outcomes need not match the whole.

Molecule	GLA inh pH 4.5	Rango complex inh	miR-21 reporter	Rango release inh
CCN1CCN(c2ncc3c(n2)CC(c2cc(OC)c(OC)c(OC)c2)CC3=O)CC1 (configuration not stated)	-12	1.5%	17%	1%
CCOC(=O)Cn1c(C)c(C#N)c2ccccc21	-5	-1.1%	-2%	2%
CCn1nc(C(=O)Nc2ccc3nc(C)sc3c2)c2ccccc2c1=O	3	1.4%	-39%	4%
COc1ccc(C2CC(=O)Oc3c(C(CCN4CCOCC4)c4cc(OC)c(OC)c(OC)c4)c(OC)cc(OC)c32)cc1 (configuration not stated)	-10	-4.2%	-6%	0%
COC(=O)c1ccccc1NC(=O)c1ccccc1OC	-7	-0.2%	-8%	-5%
CCOc1cccc2c1OC1(C)CC2NC(=O)N1c1cccc(C(=O)N2CCN(c3ccccn3)CC2)c1 (configuration not stated)	x	1.0%	7%	-1%
O=C(O)COc1ccc(/C=N/Nc2nc(Nc3ccccc3)nc(N3CCCCC3)n2)cc1	-2	2.1%	-1%	-4%
Cc1nc2ccc(Br)cn2c(=O)c1Cl	2	-1.3%	0%	17%
O=S(=O)(c1ccc(SCc2ccc(Br)cc2)nc1)N1CCOCC1	x	-0.7%	x	0%
CCc1nn(CC(=O)NCCC2=CCCCC2)c(=O)c2cc3cc(F)ccc3n12	x	-0.3%	2%	1%
COc1ccc(C2Nc3cccc4cccc(c34)N2)cc1	11	-3.8%	-1%	21%
O=C(Nc1ccc(Cl)cn1)Nc1ccccc1Cl	4	0.3%	-1%	1%
Cc1cc(Cl)ccc1C(=O)C1CCCN(C(=O)/C=C/c2cnn(C)c2)C1 (configuration not stated)	6	2.4%	0%	28%
CCCn1c(CCC(=O)O)ccc1-c1ccc(F)cc1	7	-4.4%	0%	6%
c1ccc(CCNc2nc3ccccc3n3nnnc23)cc1	6	u	-9%	-27%

Continued:
Molecule	GLA inh pH 4.5	Rango complex inh	miR-21 reporter	Rango release inh
CCN1/C(=C/c2ccc3cc(C)ccc3[n+]2CC)Sc2cc(C)ccc21	-10	u	15%	u
O=C1NCCCC1C(=O)N1CCN(C(c2ccccc2)c2ccccc2)CC1 (configuration not stated)	2	-1.3%	-3%	-12%
Cc1c(-c2ccc(Cl)cc2)oc(=O)c2c(N)n(-c3ccccc3)nc12	8	0.0%	-27%	6%
O=C(NC1CCCCCCC1)c1cccc(S(=O)(=O)N2CCOCC2)c1	x	0.0%	x	-4%
O=C(O)c1cccnc1NC1CCCC1	-3	-1.3%	-5%	-25%
O=C(NCCN1CCCCC1)Nc1ccc(Br)cc1	x	-3.3%	-20%	0%
CCC(C)NC(=O)[C@@H]1CSC2c3ccccc3C(=O)N21 (some centres not stated)	x	-0.6%	0%	-16%
Cc1cc(NC(=O)c2cccc(Br)c2)no1	x	0.1%	x	0%
CC1Cc2cc(C3(O)C(=O)c4ccccc4C3=O)ccc2N1 (configuration not stated)	10	1.2%	-1%	2%
Cn1c(SCC(=O)N2CCOCC2)nnc1-c1ccc2ncccc2c1	-3	-2.3%	1%	1%
CCNNC(=O)C(O)(Cc1ccccc1)Cc1ccccc1	x	-0.9%	-5%	18%
COc1ccc(C(=O)Nc2nc(C)cc(C)n2)cc1[N+](=O)[O-]	5	4.8%	-3%	15%
CN(CCOc1ccccc1)Cc1nc2cc(Cl)ccc2c(=O)[nH]1	-15	4.8%	-7%	15%
COc1ccc(NC(=S)NC(C)Cc2cccs2)cc1 (configuration not stated)	0	0.4%	-23%	u
O=C(Nc1ccc(F)c(F)c1)C1CCCN1S(=O)(=O)c1ccc(F)cc1 (configuration not stated)	x	-2.4%	6%	15%

New compounds follow.
Molecule	GLA inh pH 4.5	Rango complex inh	miR-21 reporter	Rango release inh
CC(C)C(NC(=O)c1ccc(C(C)(C)C)cc1)C(=O)NC1=NCCS1 (configuration not stated)	-3	-0.7%	-10%	u
Cc1ccc(NC(=O)c2c(C)nc3ccccn23)cc1C	-11	4.9%	-56%	5%
C[C@H](CO)N1C[C@H](C)[C@@H](CN(C)C(=O)Nc2ccccc2)Oc2ccc(NS(=O)(=O)c3ccccc3)cc2C1=O	x	-3.4%	x	-8%
COc1ccc(-n2nc3cc(C)c(NC(=O)C(C)C)cc3n2)cc1	4	x	-48%	x
COC(=O)c1[nH]c2ccccc2c1NC(=O)CN1CCN(C/C=C/c2ccccc2)CC1	1	2.1%	27%	10%
CCN1CCCC1CNC(=O)c1ccc(N2CCCC2=O)cc1 (configuration not stated)	-8	-2.0%	-4%	-11%
c1ccc(-c2nc(NCc3ccco3)c3oc4ccccc4c3n2)cc1	3	2.2%	0%	17%
COc1cc(NC(=O)CN2CCC(Cc3ccccc3)CC2)c(C)cc1[N+](=O)[O-]	-3	0.4%	-3%	-17%
O=C1Nc2ccc([N+](=O)[O-])cc2OC1CCN1CCN(Cc2ccc3c(c2)OCO3)CC1 (configuration not stated)	-1	u	2%	u
O=C(Cc1ccc(Br)cc1)c1ccc(O)cc1O	-6	0.1%	-56%	-1%
O=C(NC1CCCCC1)C(c1ccc(O)cc1)N(CC1CCCO1)C(=O)C1COc2ccccc2O1 (configuration not stated)	1	2.7%	5%	16%
COc1ccc(OC)c(S(=O)(=O)N2CCC(C(=O)NCc3ccccc3OC)CC2)c1	-17	0.9%	-1%	9%
O=C(CCc1ccccc1)NC(NC(=S)Nc1cccc(Cl)c1)C(Cl)(Cl)Cl (configuration not stated)	6	7.8%	16%	0%
O=c1[nH]ncc(NCc2ccc(Cl)cc2)c1Cl	2	-0.3%	-12%	-1%
O=[N+]([O-])c1cc(S(=O)(=O)CCCN2CCOCC2)ccc1F	-6	-2.6%	1%	-14%

Further entries.
Molecule	GLA inh pH 4.5	Rango complex inh	miR-21 reporter	Rango release inh
O=C(c1cnc(Cl)c(Cl)c1)N1CCN(S(=O)(=O)c2ccc(F)cc2)CC1	x	-1.3%	0%	2%
O=C(Nc1ccccc1)NC1(C(=O)N2CCC(O)CC2)CCCCC1	x	6.4%	-1%	-1%
COc1ccccc1-n1c(=O)c2c3c(sc2n2c(=S)[nH]nc12)CCC3	0	0.2%	2%	6%
O=C(O)CC(NC(=O)c1cccc([N+](=O)[O-])c1)c1ccc2c(c1)OCO2 (configuration not stated)	-12[21.1 µM]	0.5%	1%	-2%
CCN(CC)S(=O)(=O)c1ccc2oc(C(=O)NCc3ccc(C)cc3)c(C)c2c1	-1	8.2%	15%	11%
COc1cc(C(=O)CSc2nccn2C)cc(OC)c1OC	x	-2.7%	-8%	1%
Cc1c(C(=O)NCCN2C(=O)S/C(=C\c3cccnc3)C2=O)cccc1[N+](=O)[O-]	-3	1.1%	3%	-7%
Cc1ccc(-c2nnc(SCC(=O)N(CC(C)C)c3c(N)n(Cc4ccccc4)c(=O)[nH]c3=O)n2N)cc1	x	1.4%	-3%	0%
COc1ccc(CN(C)CC(=O)Nc2ccc(Cl)cc2F)c(OC)c1	-4	0.8%	-22%	-13%
COc1ccc(-c2nc(CS(=O)CC(=O)NCc3ccco3)c(C)o2)cc1 (configuration not stated)	-9	0.6%	-6%	-4%
Cc1ccc(OCC(=O)N/N=C/c2ccccc2)c([N+](=O)[O-])c1	-1[21.1 µM]	-4.0%	-3%	14%
COC(=O)c1cc(-c2ccc(Br)cc2)c2c(=O)n(C)c(=O)n(C)c2n1	x	-0.7%	3%	-9%
COc1ccc(C(=O)COC(=O)CCNS(=O)(=O)c2ccc(NC(C)=O)cc2)c(OC)c1	x	2.4%	x	-12%
COC(=O)c1[nH]c2ccc(C)cc2c1NC(=O)CN1CCCc2ccccc21	4	-0.6%	-6%	9%
Cc1nc2c3ccccc3nc(NNC(=O)CCC(=O)N3CCC(C)CC3)n2n1	x	7.1%	4%	-16%

Rewritten with values ahead of the structure: 11 of the compounds above.
| GLA inh pH 4.5 | Rango complex inh | miR-21 reporter | Rango release inh | Compound |
| --- | --- | --- | --- | --- |
| x | 6.4% | -1% | -1% | O=C(Nc1ccccc1)NC1(C(=O)N2CCC(O)CC2)CCCCC1 |
| 0 | 0.2% | 2% | 6% | COc1ccccc1-n1c(=O)c2c3c(sc2n2c(=S)[nH]nc12)CCC3 |
| -12[21.1 µM] | 0.5% | 1% | -2% | O=C(O)CC(NC(=O)c1cccc([N+](=O)[O-])c1)c1ccc2c(c1)OCO2 (configuration not stated) |
| -1 | 8.2% | 15% | 11% | CCN(CC)S(=O)(=O)c1ccc2oc(C(=O)NCc3ccc(C)cc3)c(C)c2c1 |
| x | -2.7% | -8% | 1% | COc1cc(C(=O)CSc2nccn2C)cc(OC)c1OC |
| -3 | 1.1% | 3% | -7% | Cc1c(C(=O)NCCN2C(=O)S/C(=C\c3cccnc3)C2=O)cccc1[N+](=O)[O-] |
| x | 1.4% | -3% | 0% | Cc1ccc(-c2nnc(SCC(=O)N(CC(C)C)c3c(N)n(Cc4ccccc4)c(=O)[nH]c3=O)n2N)cc1 |
| -4 | 0.8% | -22% | -13% | COc1ccc(CN(C)CC(=O)Nc2ccc(Cl)cc2F)c(OC)c1 |
| -9 | 0.6% | -6% | -4% | COc1ccc(-c2nc(CS(=O)CC(=O)NCc3ccco3)c(C)o2)cc1 (configuration not stated) |
| -1[21.1 µM] | -4.0% | -3% | 14% | Cc1ccc(OCC(=O)N/N=C/c2ccccc2)c([N+](=O)[O-])c1 |
| x | -0.7% | 3% | -9% | COC(=O)c1cc(-c2ccc(Br)cc2)c2c(=O)n(C)c(=O)n(C)c2n1 |

For reference, part of the list above.
Molecule	GLA inh pH 4.5	Rango complex inh	miR-21 reporter	Rango release inh
O=C(c1cnc(Cl)c(Cl)c1)N1CCN(S(=O)(=O)c2ccc(F)cc2)CC1	x	-1.3%	0%	2%
O=C(Nc1ccccc1)NC1(C(=O)N2CCC(O)CC2)CCCCC1	x	6.4%	-1%	-1%

Continued:
Molecule	GLA inh pH 4.5	Rango complex inh	miR-21 reporter	Rango release inh
CS(=O)(=O)N(CC(=O)N1CCCC1)c1ccccc1Br	x	-3.0%	-2%	26%
O=[N+]([O-])c1ccc2c(c1)c1ccccc1n2CCO	-6	-0.3%	-10%	15%
F[B-](F)(F)COc1ccccc1	x	-0.5%	x	3%
Cc1cc(=O)[nH]c(SCC(=O)Nc2ccc(Br)cc2)c1C#N	-7	-0.2%	-6%	9%
CC(C)CCN(C(=O)CNC(=O)c1cccs1)C(C(=O)NC1CCCCC1)c1cccnc1 (configuration not stated)	-14	-5.1%	-1%	-6%
CC(C)N=Cc1c(O)[nH]c2ccccc12	5	-3.7%	1%	0%
CC(=O)Nc1ccc(S(=O)(=O)Nc2ccccc2N2CCOCC2)cc1Cl	x	1.8%	-3%	7%
COC(=O)C1=C(CS(=O)(=O)c2cc(Cl)ccc2OC)NC(=O)NC1c1ccc(O)c(OC)c1 (configuration not stated)	x	0.6%	3%	2%
CCC(C)NC(=O)C1(O)c2ccccc2NC(=O)N1c1ccc(C)c(C)c1 (configuration not stated)	x	2.5%	-4%	3%
COc1ccc(S(=O)(=O)Oc2cc(C(=S)N3CCOCC3)ccc2OC)cc1	x	0.2%	3%	-6%
CC1CN(c2cc3nccnc3cc2F)CC(C)O1 (configuration not stated)	-4	u	-6%	u
S=C(NCCc1ccccc1)N1CCn2cccc2C1c1cccnc1 (configuration not stated)	2	0.4%	7%	4%
Cc1ccc(C2CC(=O)c3cnc(N4CCc5ccccc5C4)nc3C2)cc1 (configuration not stated)	-10	-2.5%	-9%	0%
CCCCNC(=O)C(=O)N/N=C/c1cccc(Br)c1	3	-0.1%	-1%	2%
CCCCOC(=O)CCCc1ccc([N+](=O)[O-])cc1[N+](=O)[O-]	2	-2.4%	6%	9%
CC(C)CN1CCNC(=O)C1CC(=O)NCCCN1CCCc2ccccc21 (configuration not stated)	-1	u	-1%	1%
CC1CCCCC1NC(=O)CSc1ccsc1[N+](=O)[O-] (configuration not stated)	-6	-3.7%	0%	-10%
